Screens from PubChem BioAssay.
miR-21 FLuc: qHTS Assay for Modulators of miRNAs and/orActivators of miR-21; HeLa miR-21 FLuc reporter, luciferase, 48 h; Potency, µM (doses to about 38.3 µM), without a hit: top-dose reporter change, positive = more light; 340,000 tested, under 10 active; AID 2288, 2010; active = well fitted rising curve with a large enough effect; inconclusive = small, poorly fitted or top-dose-only effect; inactive = no such curve, though single readings can be large or run the other way;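 also: % of control where 0% means no effect; miR-21 action dims this reporter so a rising signal means less miR-21 action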
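Compounds were titrated across several concentrations (up to approximately 40 uM) and incubated 48 hours with HeLa miR-21-FLuc reporter cells (miR-21 target sequence downstream of FLuc, endogenous miR-21). Readout was firefly luciferase luminescence after lytic detection reagent.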
GLA inh pH 4.5: qHTS Assay for Inhibitors of Human alpha-Galactosidase at pH 4.5; AID 1467, 2008; activity change, negative = inhibition, % at 105 µM; Alpha-galactosidase A (Homo sapiens), P06280; purified enzyme, 4-MU-alpha-Gal fluorescence, pH 4.5; 230,000 tested, under 10 active; inconclusive = small, poorly fitted or top-dose-only inhibition, or a rising curve; inactive = flat fitted curve, though single readings scatter; no compound was filed as active;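 also: 0% = full activity with enzyme and -100% = basal without enzyme; dose as in the result columns while the protocol names 77 µM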
Rango-impB inh: qHTS Assay for Inhibitors of Rango (Ran-regulated importin-beta cargo) - Importin beta complex formation; Importin subunit beta-1 (Homo sapiens), Q14974; Potency, µM (highest dose often 92.2 µM), inactives show at the top dose inhibition of complex formation; AID 540263, 2011; actives 0.031% (n = 340,000); Rango CFP/YFP FRET sensor + importin beta, 45 min; active = rising FRET ratio curve, often small or poorly fitted; inconclusive = mostly compound fluorescence or quenching in the first reads; inactive = flat curves in all reads;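 also: potency is read from the fitted curve at half-maximal effect; 0% = DMSO wells and 100% = buffer wells lacking importin beta; nearly all actives have a fitted effect of over 15% in size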
Target sequence (Q14974 whole entry, looked up): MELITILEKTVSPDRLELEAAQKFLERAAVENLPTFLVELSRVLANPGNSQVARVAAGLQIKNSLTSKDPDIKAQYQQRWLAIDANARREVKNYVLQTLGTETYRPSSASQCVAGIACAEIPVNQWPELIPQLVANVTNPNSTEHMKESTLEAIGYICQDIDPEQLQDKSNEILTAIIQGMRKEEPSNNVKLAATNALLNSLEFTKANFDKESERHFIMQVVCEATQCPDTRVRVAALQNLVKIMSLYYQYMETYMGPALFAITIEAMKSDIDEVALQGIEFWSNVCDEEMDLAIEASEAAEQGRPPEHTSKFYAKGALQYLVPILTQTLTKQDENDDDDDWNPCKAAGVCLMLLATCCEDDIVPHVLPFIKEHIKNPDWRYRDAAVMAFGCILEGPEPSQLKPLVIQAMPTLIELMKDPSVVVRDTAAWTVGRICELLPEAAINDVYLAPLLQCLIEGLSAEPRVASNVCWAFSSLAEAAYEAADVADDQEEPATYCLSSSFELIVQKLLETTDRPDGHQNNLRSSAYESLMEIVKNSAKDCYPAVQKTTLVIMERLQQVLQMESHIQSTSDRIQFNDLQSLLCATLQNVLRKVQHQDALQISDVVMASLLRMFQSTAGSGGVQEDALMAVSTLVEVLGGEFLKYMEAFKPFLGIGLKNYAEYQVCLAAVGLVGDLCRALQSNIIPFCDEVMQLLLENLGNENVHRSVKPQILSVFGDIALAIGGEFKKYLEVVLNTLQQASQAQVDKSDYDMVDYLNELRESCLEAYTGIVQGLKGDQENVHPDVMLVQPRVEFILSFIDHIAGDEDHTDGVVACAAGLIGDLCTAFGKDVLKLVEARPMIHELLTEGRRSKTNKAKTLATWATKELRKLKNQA
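Inhibition scored from the CFP 486 nm/YFP 530 nm FRET ratio 45 min after adding 0.125 microM importin beta to 50 nM Rango biosensor preincubated 5 min with compound (room temperature, PBS with DTT, Tween-20, BSA). No-importin wells as positive control.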
Rango dissoc inh: qHTS Assay for Inhibitors of RanGTP induced Rango (Ran-regulated importin-beta cargo) - Importin beta complex dissociation | Biochemical FRET Rango-importin beta, RanGTP-induced dissociation | Potency, µM (doses to about 46.1 µM), without a hit: at the top dose activity change, negative = inhibition | actives 0.071% (n = 340,000) | AID 540253, 2011; active means falling FRET ratio curve, often poorly fitted, with flat reads before Ran was added; inconclusive means other falling curves, or compound fluorescence or quenching; inactive means flat or rising ratio curve;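 also: potency is read from the fitted curve at half-maximal effect; % of control where 0% means no effect; nearly all actives have a fitted effect of over 45% in size; -100% = wells without RanGTP and RCC1; the record marks most hits as doubtful in a second field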
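Compounds preincubate 5 min with complex of recombinant Rango and importin beta in PBS with 1 mM DTT. Ran (0.6 uM) loaded with 2 mM GTP plus 0.2 uM RCC1 starts dissociation; FRET is recorded 45 min later.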
* = called active by the depositor; u = inconclusive; x = no result given; [ ] = remark or other dose.

SMILES | miR-21 FLuc | GLA inh pH 4.5 | Rango-impB inh | Rango dissoc inh
O=C(COC(=O)c1c(Cl)ccc(Cl)c1Cl)NC(=O)NCc1ccccc1 | -16% | -5 | -0.4% | 0%
COc1ccccc1N1CCN(C(=O)c2ccc(N3CCCCS3(=O)=O)cc2)CC1 | 8% | x | 2.6% | -13%
O=C1CCN(Cc2cccnc2)CCN1[C@H](CO)c1ccccc1 | 2% | x | 5.2% | -20%
O=C(c1cc(-c2cccc3ccccc23)nc2ccccc12)N1CCN(CCO)CC1 | x | x | -3.4% | -3%
COc1ccc(CCN=C(N)NS(=O)(=O)c2ccc(F)cc2)cc1 | 1% | -4 | 0.4% | 7%
Brc1cc2c(cc1-c1nc3ccccc3s1)OCO2 | -33% | x | 5.3% | 10%
CCOc1ccc(NC(=O)CN(C)C(=O)CCc2ccccc2Cl)cc1OCC | 6% | x | -0.1% | -7%
O=C(O)C1Cc2ccccc2CN1C(=O)CSc1nnc2ccccn12 (stereo unspecified) | 2% | 5 | -5.8% | 26%
CCOC(=O)C1=NNC(C(=O)c2ccc(Cl)cc2)C1c1ccccc1 (stereo unspecified) | -5% | 1 | 2.4% | 2%
O=C(Cn1c(O)c(/C=C2\C=Nc3ccccc32)sc1=O)N1CCOCC1 | -22% | 5 | u | u
O=C(Nc1ccccc1C(F)(F)F)c1ccccc1Br | 1% | -2[21.1 µM] | -0.4% | 15%
Cc1cccc(C)c1OCC(=O)Nc1ccccc1C(=O)N1CCOCC1 | -3% | x | 3.2% | -5%
COc1ccc(N2CCN(C(=O)/C=C/c3ccco3)CC2)cc1 | -6% | -23 | 4.1% | 10%
COc1ccc(-n2c(SCC(=O)N3CCc4ccccc43)nnc2-c2c[nH]c3ccccc23)cc1 | -3% | 2 | -1.1% | -6%
CC(C)n1cnnc1SCC(=O)Nc1ccc(Br)cc1F | 2% | -2 | -0.7% | -9%
O=C(NC1CCCCC1)C1CCCN1C(=O)Nc1ccccc1 (stereo unspecified) | 2% | x | 2.2% | 15%
CCn1nnnc1SCC(=O)Nc1cc(OC)cc(OC)c1 | 9% | -1 | 0.6% | -8%
COc1ccc(/C=N/NC(=O)C2CCN(c3ncc(C(F)(F)F)cc3Cl)CC2)cc1 | 1% | 10 | -4.0% | 0%
COc1cc(OC)cc(C(=O)N2CCN(C3CCN(Cc4ccccc4)CC3)CC2)c1 | 15% | -2 | -3.1% | -2%
CCOC(=O)C1=C(C)N(CCCC(=O)O)C(=O)NC1c1cccs1 (stereo unspecified) | x | x | -2.0% | 10%
Cc1cc(CSC(=N)N)c(CSC(=N)N)cc1C | -1% | 1 | u | 0%
COc1cccc2c3c(c(C)nc12)CC(C)O3 (stereo unspecified) | -20% | 2 | 1.3% | 2%
CCCCN(C(=S)Nc1cccc(C)c1C)c1c(N)n(CCC)c(=O)[nH]c1=O | -2% | -3 | -1.6% | 19%
CC1Oc2ccccc2C=C1/C=C1/SC(N2CCOCC2)=NC1=O (stereo unspecified) | -1% | -5 | u | u
O=C(c1cccc(Cl)c1)N1CCN(C2CCCCCC2)CC1 | -11% | 1 | 3.3% | 8%
COc1ccc2cc(C3NC(=O)c4ccccc4N3)c(Cl)nc2c1 (stereo unspecified) | -17% | -4 | -3.1% | 9%
Cc1ccc(NC(=O)Cc2c(F)cccc2Cl)cc1S(=O)(=O)N1CCOCC1 | x | x | 0.5% | 6%
COc1ccc(-c2noc(N(C)CC(=O)Nc3cccc(C(F)(F)F)c3)n2)cc1 | -11% | -5 | -0.5% | 7%
OC(CNCc1ccc(Cl)cc1)(c1ccccc1)c1ccc(F)cc1 (stereo unspecified) | 10% | -14 | 0.8% | 41%
O=C(Nc1cccc(Cl)c1)NC1CCN(C2CCCCC2)C1 (stereo unspecified) | -7% | x | 3.8% | 1%
Cc1sc(-c2ccccn2)nc1OC(=O)c1ccc(Cl)c(Cl)c1 | -5% | 4 | -2.4% | -5%
COC(=O)CN1C(=S)N(c2ccc(F)cc2)C(=O)C1CC(=O)Nc1ccc(F)cc1 (stereo unspecified) | -1% | -7 | 0.0% | 2%
Cc1ccccc1C(=O)NC(=S)NCc1ccccc1 | -2% | x | 0.2% | 11%
O=C(Cc1ccc(N2CCNC2=O)cc1)N1CCCC(Nc2cccc(F)c2)C1 (stereo unspecified) | 18% | x | 3.6% | -8%
CCOC(=O)C1CCN(S(=O)(=O)c2cccc(-c3cn4cc(C)ccc4n3)c2)CC1 | 3% | -24 | -2.1% | 0%
O=C(COc1ccccc1[N+](=O)[O-])N(Cc1ccco1)C1CCS(=O)(=O)C1 (stereo unspecified) | -3% | x | 0.2% | -2%
COc1cc(NS(=O)(=O)c2ccc(NC(=O)/C(=C\c3ccccc3OC)NC(=O)c3ccccc3)cc2)nc(OC)n1 | -9% | -7 | 0.1% | 13%
O=C(Nc1cccc(F)c1)NC1CCCCCCC1 | -36% | x | -4.7% | 1%
COc1ccccc1C(=O)Nc1c2c(nn1-c1ccc(Cl)cc1)CS(=O)(=O)C2 | 0% | x | -1.4% | 1%
CC(=O)N1c2ccc(S(=O)(=O)N(C)Cc3ccco3)cc2CC1C (stereo unspecified) | -1% | x | 0.5% | 14%
CC(=O)Nc1cc(C(=O)OCc2cccc([N+](=O)[O-])c2)ccc1C | -10% | -1 | 0.0% | -1%
COCC(=O)Nc1cccc(C(F)(F)F)c1 | -5% | -11 | 1.8% | 0%
c1ccc(CCC2=NCCn3cccc32)cc1 | -6% | -3 | u | u
O=C(Cn1c(=O)c2c(ncn2Cc2ccccc2)n(Cc2ccccc2)c1=O)NC1CC1 | -4% | 0 | 0.1% | 1%
CCOc1ccccc1NC(=O)C1CC2CCCC(C1)C2=O (stereo unspecified) | 1% | 1 | -2.4% | -3%
CCC(C)Nc1nc(N)c([N+](=O)[O-])c(Nc2cc(OC)ccc2OC)n1 (stereo unspecified) | -7% | -7 | 5.1% | 9%
CCN(CC(=O)N1CCc2ccccc2C1)S(=O)(=O)c1ccc2ccccc2c1 | -3% | -8 | -0.2% | -7%
CC1Cc2ccccc2N1c1ncnc(N)c1[N+](=O)[O-] (stereo unspecified) | u | -8 | 0.0% | -2%
CCOC(=O)N1CCc2c(sc(N)c2C#N)C1 | -1% | 6 | u | -5%
CCCCn1c(CCNC(=O)c2cccs2)nc2ccccc21 | -1% | -3 | 3.3% | 2%

Carrying on.
SMILES | miR-21 FLuc | GLA inh pH 4.5 | Rango-impB inh | Rango dissoc inh
Cc1cc(NC(=O)CSc2sc3c(O)cc(=O)[nH]c3c2C#N)ccc1Br | 17% | x | -2.6% | -7%
O=C(Nc1cccc2ccccc12)NC(Cc1ccccc1)C(=O)O (stereo unspecified) | -1% | x | 1.7% | -15%
COc1cccc(C2=NOC(C(=O)Nc3cccnc3Cl)C2)c1 (stereo unspecified) | -11% | 7 | -2.5% | 1%
Cc1ccc(-n2c(C)cc(/C=N/NC(=O)CN(c3ccc(C)cc3C)S(C)(=O)=O)c2C)cc1 | -11% | -5 | -0.2% | -3%
CSc1ccc(C2=C/C(=C3/SC(=S)NC3=O)c3ccccc3O2)cc1 | x | x | -3.1% | 10%
CN(C)c1nc2sc3c(c2c(=O)n1C)CC(C)(C)OC3 | -27% | 2 | 1.5% | -1%
COc1ccccc1NC(C)=[N+](C)CCNS(=O)(=O)c1ccc(Cl)cc1 | 3% | x | -2.2% | 6%
CC(C)C(c1nnnn1Cc1ccco1)N1CCN(c2cccc(Cl)c2)CC1 (stereo unspecified) | 4% | 6 | 0.1% | 1%
CC1=CC(C)(C)N2C(=O)C(=Nc3ccc(O)cc3)c3cccc1c32 | 29% | 0 | -0.3% | 6%
CNS(=O)(=O)c1ccc2c(c1)oc(=O)c1cc(S(=O)(=O)NC)ccc12 | 4% | -3 | u | -20%
CO/N=C(\N)c1ccc([N+](=O)[O-])cc1 | -14% | 7 | 2.9% | 18%
COc1ccccc1NC(=O)c1c(O)c2ccccc2[nH]c1=O | -7% | x | -3.3% | -2%
CC1=CC(=O)C2=C(C)CC[C@@H]3[C@H](OC(=O)[C@H]3C)[C@@H]12 | 1% | -5 | -1.5% | 0%
COCCNC(=S)N(CCc1c(C)[nH]c2ccc(C)cc12)Cc1cccnc1 | 0% | x | 0.2% | -3%
COCCCNC(=O)CN(c1cc(Cl)ccc1OC)S(=O)(=O)c1ccc(C)c([N+](=O)[O-])c1 | -1% | 0 | -1.5% | 12%
COc1cccc(NC(=O)c2nc3nc(C)cc(C(F)F)n3n2)c1 | -9% | 3 | -3.8% | -3%
CCNS(=O)(=O)c1ccc(CCC(=O)N2CCN(Cc3ccccc3)CC2)cc1 | 0% | x | 3.9% | 1%
CC[N+](CC)(CC(=O)Nc1c(C)cccc1C)Cc1ccccc1 | x | -4 | 4.4% | -25%
COc1ccccc1OCCNC(=O)CCNC(=O)c1ccccc1OC | x | x | -0.5% | 8%
CSc1ccc(/C=N/Nc2nc(C)cc(=O)[nH]2)cc1 | -28% | 8 | 2.3% | -4%
O=C(COC(=O)Cc1ccc(Cl)cc1)Nc1cc(S(=O)(=O)N2CCOCC2)ccc1N1CCCC1 | -1% | -21 | 3.4% | -2%
CCCOC(=O)Cn1cnc2scc(-c3ccc(OC)cc3)c2c1=O | 11% | x | u | 17%
O=C(O)c1ccc(S(=O)(=O)c2ccc3c(c2)C(=O)N(NC(=O)c2ccncc2)C3=O)cc1 | 4% | 8 | -1.5% | -3%
CC(C)(C)c1ccccc1NC(=S)NCc1ccccc1 | 6% | 11 | -5.5% | -7%
Cc1c(NC(=O)c2c(N)sc3c2CCCC3)c(=O)n(-c2ccccc2)n1C | 1% | 0[21.1 µM] | -2.4% | 1%
CC(=O)c1ccc(NC(=S)Nc2ccc(Br)c(Cl)c2)cc1 | 1% | 1 | -0.1% | -3%

Entries listed so far with fluorine, in the order listed:
SMILES | miR-21 FLuc | GLA inh pH 4.5 | Rango-impB inh | Rango dissoc inh
COc1ccc(CCN=C(N)NS(=O)(=O)c2ccc(F)cc2)cc1 | 1% | -4 | 0.4% | 7%
O=C(Nc1ccccc1C(F)(F)F)c1ccccc1Br | 1% | -2[21.1 µM] | -0.4% | 15%
CC(C)n1cnnc1SCC(=O)Nc1ccc(Br)cc1F | 2% | -2 | -0.7% | -9%
COc1ccc(/C=N/NC(=O)C2CCN(c3ncc(C(F)(F)F)cc3Cl)CC2)cc1 | 1% | 10 | -4.0% | 0%
Cc1ccc(NC(=O)Cc2c(F)cccc2Cl)cc1S(=O)(=O)N1CCOCC1 | x | x | 0.5% | 6%
COc1ccc(-c2noc(N(C)CC(=O)Nc3cccc(C(F)(F)F)c3)n2)cc1 | -11% | -5 | -0.5% | 7%
OC(CNCc1ccc(Cl)cc1)(c1ccccc1)c1ccc(F)cc1 (stereo unspecified) | 10% | -14 | 0.8% | 41%
COC(=O)CN1C(=S)N(c2ccc(F)cc2)C(=O)C1CC(=O)Nc1ccc(F)cc1 (stereo unspecified) | -1% | -7 | 0.0% | 2%
O=C(Cc1ccc(N2CCNC2=O)cc1)N1CCCC(Nc2cccc(F)c2)C1 (stereo unspecified) | 18% | x | 3.6% | -8%
O=C(Nc1cccc(F)c1)NC1CCCCCCC1 | -36% | x | -4.7% | 1%
COCC(=O)Nc1cccc(C(F)(F)F)c1 | -5% | -11 | 1.8% | 0%
COc1cccc(NC(=O)c2nc3nc(C)cc(C(F)F)n3n2)c1 | -9% | 3 | -3.8% | -3%

Only part of the results is shown (hit frequency here may not be typical).
